# Screening data from PubChem.
# Tgondii IFNg: T. gondii growth inhibition under IFN-gamma; 69,000 compounds, 3.8% hits; AID 1259416; Toxoplasma gondii growth in IFN-gamma-treated host cells; hits give low values; reference of the scale not given here; activity change, negative = inhibition, %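 (about 20 µM by stock and volumes)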;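 active = below -70%; inconclusive = fit judged invalid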;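 note: host cells are HeLa cells infected with Toxoplasma gondii; parasite growth read as luciferase light; one replicate is shown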
# Starred values were filed as active, the others as inactive; i = inactive; u = inconclusive; & = joins results of further samples. This is a subset (hit frequency here may not be typical).
1	CCn1c(C2CCCNC2)nn(CCOc2ccc(C)cc2C)c1=O (stereo not given)
  Tgondii IFNg = -52
2	COc1ccc(OCC(=O)N2CCC3(CC2)CC(C(=O)O)c2ccccc2O3)cc1 (stereo not given)
  Tgondii IFNg = -19
3	CC(C)c1nccn1C(C)C(=O)N1CCc2[nH]nc(-c3cccc(F)c3)c2C1 (stereo not given)
  Tgondii IFNg = -53
4	CCOc1ccc(NC(=O)CN2CCC3(CC2)N=C(c2ccc(C)c(C)c2)C(=O)N3)cc1
  Tgondii IFNg = 0
5	CN1CCN(c2ccc(N)cc2C(=O)O)CC1
  Tgondii IFNg = -5
6	Cc1nn(C)c(C)c1-c1ccnc(NCCc2cscn2)n1
  Tgondii IFNg = -43
7	CC(C)NCCN(C(C)C)S(=O)(=O)c1ccc(Cl)cc1Cl
  Tgondii IFNg = -1
8	O=C(NC1CCCC1)N[C@H]1C=C[C@@H](CC(=O)N2CCOCC2)O[C@@H]1CO
  Tgondii IFNg = 20
9	CC[C@H]1C[C@@H](NC(=O)c2ccccc2)C[C@@H](CCn2nc(C)cc2C)O1
  Tgondii IFNg = -4
10	C=CCn1c(=O)c(C(=O)Nc2ccccc2F)c(O)c2ccccc21
  Tgondii IFNg = 17
11	COc1cc(OC)c2c(CN3CCC4(CC3)NC(=O)N(C)C4=O)cn(C)c2c1
  Tgondii IFNg = -70
12	c1ccc(NCc2cnc3n2CCN(c2ncccn2)CC3)nc1
  Tgondii IFNg = -20
13	O=C1NCC2(CCCN(Cc3cnc(C4CCCCC4)nc3)CC2)O1 (stereo not given)
  Tgondii IFNg = 5
14	CCOc1ccc(-c2nc(Cn3nnc(C(=O)Nc4ccccc4)c3C)c(C)o2)cc1OC
  Tgondii IFNg = -5
15	CCOC(=O)CCc1nc2ccccc2[nH]1
  Tgondii IFNg = -27
16	Cc1ccccc1N(Cc1nc(-c2ccc(OC(C)C)cc2)oc1C)S(=O)(=O)c1cccs1
  Tgondii IFNg = 4
17	CO[C@@H]1CN(C)C(=O)c2ccc(NC(=O)NC(C)C)cc2OC[C@H](C)N(Cc2ccc(-c3ccccn3)cc2)C[C@H]1C
  Tgondii IFNg = 17
18	COc1ccc(Cc2n[nH]c(=O)n2-c2c(C)noc2C)cc1
  Tgondii IFNg = -2
19	Cc1nc(-c2ccccc2)sc1-c1nc(-c2ccc(C(C)(C)C)cc2)no1
  Tgondii IFNg = -77*
20	CCOC(=O)C(Cc1c[nH]c2ccccc12)NC(=O)c1cc2ccccc2oc1=O (stereo not given)
  Tgondii IFNg = 16
21	CCOC(=O)c1c(-c2cccs2)csc1NC(=O)c1cc2ccccc2oc1=O
  Tgondii IFNg = -7
22	CCN1Cc2ccccc2CC1C(=O)N(C)Cc1n[nH]c2c1CCC2 (stereo not given)
  Tgondii IFNg = 14
23	CCc1c(C(=O)N(C)CCn2ccnc2C)[nH]c2ccccc12
  Tgondii IFNg = 4
24	OC[C@H]1O[C@@H](n2cnc3c(NC4CCCC4)ncnc32)[C@H](O)[C@@H]1O
  Tgondii IFNg = -2&12
25	COC(=O)c1nnn(-c2ccc(F)c(Cl)c2)c1SCc1c(F)cccc1Cl
  Tgondii IFNg = -12

# Continued, overlapping the part above by three compounds.
23	CCc1c(C(=O)N(C)CCn2ccnc2C)[nH]c2ccccc12
  Tgondii IFNg = 4
24	OC[C@H]1O[C@@H](n2cnc3c(NC4CCCC4)ncnc32)[C@H](O)[C@@H]1O
  Tgondii IFNg = -2&12
25	COC(=O)c1nnn(-c2ccc(F)c(Cl)c2)c1SCc1c(F)cccc1Cl
  Tgondii IFNg = -12
26	O=S(=O)(c1ccc(F)cc1)N1CCCc2ccccc21
  Tgondii IFNg = -12
27	CNC(=O)c1cc(=O)n(CC(=O)Nc2cccc(Cl)c2C)c2ccccc12
  Tgondii IFNg = 11
28	CCn1cnc2c1C(C(=O)O)CN(Cc1c(C)noc1C)C2 (stereo not given)
  Tgondii IFNg = i
29	CCS(=O)(=O)N1CCC2(CC1)OC(=O)C(C)=C2C(=O)Nc1ccc(OC)c(Cl)c1
  Tgondii IFNg = 91
30	O=C(O)CCCC(=O)Nc1ccccc1-c1ccccc1
  Tgondii IFNg = 38
31	Cc1ccc(NCc2ccc(C(=O)NCC3(CO)CCC3)cc2)cc1
  Tgondii IFNg = -7
32	Cc1ccc(OC2(C(=O)NCCNc3cccnc3)CCNCC2)cc1
  Tgondii IFNg = -11
33	c1ccc(-c2cc(-c3c[nH]c4ccccc34)cc(-c3ccccc3)n2)cc1
  Tgondii IFNg = -47
34	CN(C)Cc1noc2c1CN(Cc1ccoc1)CC2
  Tgondii IFNg = -32
35	COc1ccc(C(=O)N2C[C@@H]3[C@H](c4ccccc42)[C@@H](CO)N3C(=O)Cc2ccccn2)cc1
  Tgondii IFNg = -5
36	COc1ccc(CNC(=O)c2nc(Nc3ccc(F)cc3)c3ccccc3n2)cc1OC
  Tgondii IFNg = -23
37	Cc1cccc(-c2ncc(CN3CCCC(c4nc(CC(C)C)no4)C3)cn2)c1 (stereo not given)
  Tgondii IFNg = 9
38	CC(C)CCn1c(N2CCc3ccccc3C2)nc2c1c(=O)[nH]c(=O)n2C
  Tgondii IFNg = -4
39	Cc1ccc2nc(N=C(N)N)nc(C)c2c1
  Tgondii IFNg = 0
40	COc1ccccc1C1CNCCN1C(C)=O (stereo not given)
  Tgondii IFNg = 7
41	Cc1ccsc1[C@@H]1CCN(C(=O)Cc2cn3ccsc3n2)C[C@H]1O
  Tgondii IFNg = 8
42	c1cncc(-c2nccn2-c2ccc(OCc3ccco3)cc2)c1
  Tgondii IFNg = 18
43	CCOc1ccc(-c2nc(CN3CCc4c(sc5c4CCCC5)C3c3ccccc3)c(C)o2)cc1 (stereo not given)
  Tgondii IFNg = -7
44	CCOC(=O)c1cc2sccc2n1CC(=O)N1CCN(C(=O)c2ccco2)CC1
  Tgondii IFNg = -18
45	Clc1ccc(CNc2nc(SCc3cccc(Cl)c3)nc3ccccc23)cc1
  Tgondii IFNg = 28
46	O=C(NC1CCN(Cc2ccccn2)CC1)c1ccc(N2CCCCC2)cc1
  Tgondii IFNg = -3
47	CC1CCN(Cc2nc3ccccc3n2C)CC1
  Tgondii IFNg = -23
48	Cc1ccccc1-c1cc(O)c2c(c1)CN(c1ncnc3[nH]ccc13)CCO2
  Tgondii IFNg = u
49	COCC#Cc1ccc([C@H]2[C@@H](CO)N3CCCCN(C(=O)NC4CCCC4)C[C@@H]23)cc1
  Tgondii IFNg = -6
50	Nc1ccnc(N2CCC(CO)(Cc3ccccc3Cl)CC2)n1
  Tgondii IFNg = -20

# Single entries from the list.
# no. 30 – Tgondii IFNg = 38
# no. 35 – Tgondii IFNg = -5
# no. 36 – Tgondii IFNg = -23
# no. 49 – Tgondii IFNg = -6
# no. 46 – Tgondii IFNg = -3

# Back to the main list; the 7 compounds before the break are reprinted first.
44	CCOC(=O)c1cc2sccc2n1CC(=O)N1CCN(C(=O)c2ccco2)CC1
  Tgondii IFNg = -18
45	Clc1ccc(CNc2nc(SCc3cccc(Cl)c3)nc3ccccc23)cc1
  Tgondii IFNg = 28
46	O=C(NC1CCN(Cc2ccccn2)CC1)c1ccc(N2CCCCC2)cc1
  Tgondii IFNg = -3
47	CC1CCN(Cc2nc3ccccc3n2C)CC1
  Tgondii IFNg = -23
48	Cc1ccccc1-c1cc(O)c2c(c1)CN(c1ncnc3[nH]ccc13)CCO2
  Tgondii IFNg = u
49	COCC#Cc1ccc([C@H]2[C@@H](CO)N3CCCCN(C(=O)NC4CCCC4)C[C@@H]23)cc1
  Tgondii IFNg = -6
50	Nc1ccnc(N2CCC(CO)(Cc3ccccc3Cl)CC2)n1
  Tgondii IFNg = -20
51	C[C@H](CO)N1C[C@H](C)[C@H](CN(C)C(=O)c2ccncc2)OCCCC[C@H](C)Oc2ccc(NC(=O)CCC(F)(F)F)cc2C1=O
  Tgondii IFNg = 35
52	COc1ccc2cc(C3CN(Cc4c(C)[nH]c(=O)[nH]c4=O)CCO3)ccc2c1 (stereo not given)
  Tgondii IFNg = -8
53	COc1ccc(S(=O)(=O)Nc2cncc(C(=O)NCCc3nc4ccccc4[nH]3)c2)cc1
  Tgondii IFNg = 20
54	Cc1oc(-c2cccc(Cl)c2)nc1CN(C)CC1(CO)CCOCC1
  Tgondii IFNg = 6
55	N[C@@H](CCC(=O)N[C@@H](CS[NH2+][O-])C(=O)NCC(=O)O)C(=O)O
  Tgondii IFNg = 17
56	Cc1cn(CCNc2nccc(C3CCCC3)n2)nn1
  Tgondii IFNg = 5
57	CC(C)[C@@H]1COCn2nncc2CC[C@H](C)C(=O)N1
  Tgondii IFNg = -4
58	CCCSc1ncc(-c2nccn2-c2ccc3n[nH]nc3c2)cn1
  Tgondii IFNg = -12
59	COc1ccc(OCc2cc(C(=O)NCC3CCOC3)n[nH]2)c(Cl)c1 (stereo not given)
  Tgondii IFNg = -35
60	COc1ccc(OC)c(NC(=O)Cn2c(=O)cc(C(=O)N3CCCCC3)c3ccccc32)c1
  Tgondii IFNg = 5
61	COc1ccc(N2CCN(C(=O)CSc3nnc(N)s3)CC2)cc1
  Tgondii IFNg = 50
62	Cc1ccsc1-c1ccc(C(C)N2CCOCC2)cc1 (stereo not given)
  Tgondii IFNg = 3
63	CCc1nc(C2CC(=O)Nc3[nH]ncc32)c(C)[nH]1 (stereo not given)
  Tgondii IFNg = -2
64	Cc1cc(CSCc2ccc(Cl)cc2)no1
  Tgondii IFNg = 20
65	CCOCC1c2c(cnn2C)CCN1C(=O)Cc1ccsc1 (stereo not given)
  Tgondii IFNg = -2
66	NC(=O)c1cc2c(nc1N1C[C@@H]3[C@H](C1)[C@H]1CC[C@@H]3O1)CCC2
  Tgondii IFNg = 0
67	O=C(NCc1ccc2c(c1)OCO2)[C@H]1C=CCN1C(=O)NC1CCCCC1
  Tgondii IFNg = 20
68	O=C(Cn1c(=O)cc(C(=O)N2CCc3ccccc3C2)c2ccccc21)NCc1ccccc1
  Tgondii IFNg = -10
69	COc1ccc(C2(C(=O)N3CCCC(N(C)C)CC3)CCCC2)cc1 (stereo not given)
  Tgondii IFNg = 5
70	CCCN1Cc2nccn2CC(CN(C)Cc2ccco2)C1 (stereo not given)
  Tgondii IFNg = -35
71	CC(c1cccnc1)N(C)Cc1cccc(-n2cccn2)c1 (stereo not given)
  Tgondii IFNg = -5
72	COc1ccccc1NC(=O)N1C[C@H](O)COC[C@H]2O[C@H](CC(=O)NCCc3ccncc3)CC[C@@H]21
  Tgondii IFNg = -3
73	COc1ccc(NC(=O)N2CCC3(CC2)CN(C(=O)C2CCC2)[C@H](CO)c2c3c3ccc(OC)cc3n2C)cc1
  Tgondii IFNg = 263
74	CCc1ccc(NC(=O)N2CCC3(CC2)COCCN(S(C)(=O)=O)C3)cc1
  Tgondii IFNg = 11
75	CCc1csc(CNC(=O)CC(=O)Nc2ccccc2C)n1
  Tgondii IFNg = 6

# Later entries.
No. | Structure | Tgondii IFNg
76 | O=C(O)COc1cccc2nsnc12 | 13
77 | O=C(c1cnc2ccccn12)C(F)(F)Sc1ccccc1 | 90
78 | N#CCCNCC1(c2ccccc2)CCCC1 | 9
79 | CC1(C(=O)N2CCOCC2)CN(Cc2ccsc2)CCO1 (stereo not given) | 0
80 | CNC(=O)[C@@]12CCCN(c3ncccn3)[C@H]1CN(Cc1ccccc1)C2 | 8
81 | CN(C)CCN1CCN(C)C2(CCN(C(=O)c3ccn[nH]3)CC2)C1=O | 3
82 | CN(Cc1cc(C(C)(C)C)n[nH]1)c1cc(N2CCOCC2)nc(N)n1 | -6
83 | CCOc1ccccc1CN(C(=O)c1ncccc1C)C1CC1 | 1
84 | CC(C)NC(=O)c1nc(-n2cnnc2)n[nH]1 | 56
85 | CN(C(=O)CCNS(C)(=O)=O)C1CCCCCC1 | -42
86 | Cc1ccc(C2c3[nH]c4ccccc4c3CCN2C(=O)c2cccc(F)c2)cc1 (stereo not given) | -129*
87 | Cc1ccc(NC(=O)c2c(O)c3cccnc3n(-c3ccccc3)c2=O)cc1C | 60
88 | Cc1ccc(NC(=O)c2cncc(NS(=O)(=O)c3ccc(C)cc3C)c2)cc1 | 11
89 | CC(C)NC(=O)N1CCn2nnc(COCc3cccnc3)c2C1 | -1
90 | NC(=O)N1Cc2nccn2CC(COCc2cccnc2)C1 (stereo not given) | 144
91 | COC(=O)C[C@H]1CC[C@H]2[C@H](COc3ccc(NC(=O)Nc4cccc(C#N)c4)cc3C(=O)N2C)O1 | -4
92 | CC(C)N1C2CCN(Cc3nccn3C)CC2C[C@H]1CN(C)C (stereo not given in full) | 2
93 | Cc1cnc(C)c(N2CCN(Cc3cc(C(C)(C)C)n[nH]3)CC2)n1 | 12
94 | Cc1cccc(NC(=O)C(=O)NCCc2sc(-c3ccc(Cl)cc3)nc2C)c1 | 18
95 | CCCN1C[C@@H](C)[C@H](OC)CN(C)C(=O)c2cc(NS(=O)(=O)c3ccccc3)ccc2OC[C@H]1C | -65

# From no. 90 to 95, copied from above:
No. | Structure | Tgondii IFNg
90 | NC(=O)N1Cc2nccn2CC(COCc2cccnc2)C1 (stereo not given) | 144
91 | COC(=O)C[C@H]1CC[C@H]2[C@H](COc3ccc(NC(=O)Nc4cccc(C#N)c4)cc3C(=O)N2C)O1 | -4
92 | CC(C)N1C2CCN(Cc3nccn3C)CC2C[C@H]1CN(C)C (stereo not given in full) | 2
93 | Cc1cnc(C)c(N2CCN(Cc3cc(C(C)(C)C)n[nH]3)CC2)n1 | 12
94 | Cc1cccc(NC(=O)C(=O)NCCc2sc(-c3ccc(Cl)cc3)nc2C)c1 | 18
95 | CCCN1C[C@@H](C)[C@H](OC)CN(C)C(=O)c2cc(NS(=O)(=O)c3ccccc3)ccc2OC[C@H]1C | -65

# More structures
No. | Structure | Tgondii IFNg
96 | CCCCNC(=O)CC1N=C2c3ccccc3N=C(SCc3ccc(C)cc3)N2C1=O (stereo not given) | -23
97 | Cc1ccc(NC(=O)C(=O)NCCc2sc(-c3ccc(F)cc3)nc2C)cc1Cl | 57
98 | Nc1nc(=O)n([C@H]2C[C@H](O)[C@@H](CO)O2)cc1F | -89*
99 | CCn1cc(-c2nnc(SCC(=O)O)n2-c2cccc(Cl)c2)cn1 | 29
100 | CS(=O)(=O)c1ccc(-c2ccc(C(=O)N3CCOCC3)o2)cc1 | 20
101 | Cn1nccc1C(NC(=O)C1Cc2cc(Cl)ccc2O1)c1ccccc1 (stereo not given) | -22
